Compound activity as filed in PubChem.
HTT prom inh – Primary qHTS for Identification of Small Molecule Inhibitors of Huntingtin Promoter Activity; HEK293 HTT promoter firefly luciferase reporter (activity 0% = vehicle and -100% = no light), 24 h; Potency, µM (highest dose often 57.5 µM), for the others: top-dose activity change, negative = inhibition, actives largely listed as inhibitors; 0.93% of 48,000 active; AID 1508623, 2021; active means well fitted inhibition curve with a large enough effect; inconclusive means small, poorly fitted or top-dose-only effect; inactive means no such curve, though single readings can be large or run the other way; further: nearly all actives have a fitted effect of over 50% in size
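Quantitative HTS used concentration series of up to 57.5 uM final on HEK293 luciferase reporter cells, 24 h at 37 degrees C. Readout was Dual-Glo firefly luminescence.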
PMP22 txn – Cell-based coincidence reporter assay to measure PMP22 gene transcription in S16 Pmp22-F2sN cells - Primary screen | S16 Pmp22-F2sN Schwann cells (luciferase reporters placed in the Pmp22 gene), FLuc/NLuc coincidence luminescence, 24 h | Potency, µM (highest dose often 57.5 µM), for the others: top-dose activity change, negative = inhibition, most hits filed as inhibitors | 2% of 43,000 active; active = clear falling dose curves in both reporters; inconclusive = both reporters move, but less clearly or upward; inactive = either reporter flat; the % is the NLuc reporter signal; further: on the % scale 0 is the no-effect control and ±100 the full control effect; some results filed as inactive show a strong effect at the top dose
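Luminescent read-out of sequential FLuc and NLuc signals from a reporter embedded in the Pmp22 3' UTR of S16 Schwann cells, taken after 24 h compound exposure at 37C; compounds reducing both signals score as inhibitors of expression.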
* = called active by the depositor; ? = inconclusive; . = no result given; & = joins results of further samples; [ ] = remark or other dose. Potency means the concentration at half of the fitted maximal effect. Rows were taken by chance. About 2.6% of those tested had a hit in this group.

Fields: HTT prom inh | PMP22 txn
> CCOc1ccc(-c2nc(SCC(=O)NCCOC)c(-c3ccc(OC)c(OC)c3)[nH]2)cc1
  -3.8% | -1.1%
> CC(C)(C)c1ccc(C(=O)N2CCCCC2CCN2CCCCC2)cc1 (centres undefined)
  -11.0% | ?
> CCOc1ccc(OCC)c(NC(=O)C(NS(=O)(=O)c2ccc(Br)s2)c2ccccc2)c1 (centres undefined)
  -6.9% | ?
> CCc1cccc(CC)c1N(COC)C(=O)Cn1c(C)nc2ccccc21
  ? | -20.7%
> COc1ccc(CCNC(=O)C(=O)NCC(c2ccco2)S(=O)(=O)c2ccccc2)cc1 (centres undefined)
  -26.0% | -22.7%
> COc1cccc(OCCSc2nc(C)c(Cc3ccccc3)c(=O)[nH]2)c1
  -18.4% | ?
> O=C(O)CCNC(=O)c1ccc(N=Nc2ccc(O)c(C(=O)O)c2)cc1
  1.6%&-7.2% | .
> Cc1ccc(Cn2c(C(=O)NCc3ccccc3Cl)cc3sccc32)cc1
  -11.5% | -15.7%
> Cc1ccc(NC(=O)/C(C#N)=C/c2cc(C)n(-c3ccc(Br)cc3)c2C)cc1C
  -18.5% | 11.9µM*
> COc1ccc(N2CCN(c3nc(-c4ccccc4F)nc4ccccc34)CC2)cc1
  ? | -27.0%
> Clc1ccc(-c2cn3cc(Cc4ccccc4)sc3n2)cc1
  -18.2% | 9.7%
> CNC(=O)c1ccc2c(c1)N=C(C)c1cc(C)ccc1S2
  -25.9% | -39.6%
> CCc1ccc(NC(=O)c2sc3nc(C)cc(C)c3c2NC(=O)c2ccccc2OC)cc1
  23.5% | -16.1%
> Cc1ccc(NC(=O)NCCc2c(C)nn(C)c2C)c(Cl)c1
  0.0% | ?
> O=C(NC1CCCC1)c1ccc2c(c1)N(Cc1ccc(C(F)(F)F)cc1)C(=O)c1ccccc1S2
  -10.0% | -15.1%
> O=c1[nH]c(=O)n([C@H]2CCCO2)cc1F
  -8.7% | .
> Cc1ccc(CNC(=O)CSc2cc(C)[nH]c(=O)n2)cc1
  -9.4% | 1.1%
> CC(C)Oc1ccc(CNC(=O)c2cccc(NC(=O)N3CCSc4ncccc43)c2)cc1
  ? | ?
> Cc1ccc(CNC(=O)Cn2c(=O)n(Cc3ccccc3)c(=O)c3c2c2cc(C)ccc2n3C)cc1
  -9.0% | -31.0%
> CCOC(=O)c1cc2c(=O)n3ccccc3nc2n(CC2CCCO2)c1=NC(=O)c1ccc(F)cc1 (centres undefined)
  -14.1% | -2.8%
> COc1cccc(NC(=O)c2nn(-c3ccc(C)cc3)c(=O)n(C)c2=O)c1
  5.1% | 4.4%
> COc1cccc(CNC(=O)c2cc(S(=O)(=O)N3CCCCC3)cn2C)c1
  -11.1% | -37.4%
> CCOc1ccc(NC(=O)c2c(NC(=O)Cc3ccccc3)sc3c2CCCCC3)cc1
  0.2% | ?
> C[C@@H](O)[C@H]1C(=O)N2C(C(=O)O)=C(SCCN=CN)C[C@H]12
  5.4% | .
> O=C(CN1C(=O)COc2ccc(S(=O)(=O)N3CCCC3)cc21)N1CCN(c2ccc(Cl)cc2)CC1
  -21.9% | ?
> Cc1cccc(NC(c2nnc(-c3ccccc3)o2)c2ccc(F)cc2Cl)c1C (centres undefined)
  -19.3% | -15.8%
> COc1ccc(CNC(=O)Cc2coc3ccc(C(C)C)cc23)cc1
  -33.6% | 3.3%
> COc1ccc(S(=O)(=O)N(CC(=O)NCc2ccccc2)c2ccc(C)cc2)cc1OC
  62.0%[activator] | ?
> COc1ccc(-c2noc(COc3cc(C)ccc3C)n2)cc1OC
  -22.3% | -15.9%
> COc1ccccc1NC(=O)c1nc(SCc2ccc(F)cc2)ncc1Cl
  -6.6% | -26.7%
> CC(Oc1ccc(O)cc1)(P(=O)(O)O)P(=O)(O)O
  -2.2% | .
> COc1cccc(NC(=O)CSC2=Nc3ccccc3C3=NC(CC(=O)NCc4ccc5c(c4)OCO5)C(=O)N23)c1 (centres undefined)
  11.2% | -19.2%
> Cc1nc2cc(C(=O)O)ccc2n1-c1ccc(C(C)C)cc1
  33.0%[activator] | ?
> COc1cc2c(cc1OC)n(CC(=O)c1cc(C)ccc1C)c(=O)n1nc(CCn3nc(C)cc3C)nc21
  -21.0% | -1.8%
> O=C(COc1ccccc1)N(Cc1cccnc1)c1nc2ccc(Cl)cc2s1
  -3.7% | -18.8%
> COc1cccc(-c2csc(-c3c(N)c(C(=O)c4ccc5c(c4)OCO5)n4ccccc34)n2)c1
  -4.0% | 14.2%
> O=C(Cn1cc(S(=O)(=O)Cc2ccccc2Cl)c2ccccc21)Nc1ccc(F)cc1F
  -12.8% | -46.0%
> CCOc1ccc(S(=O)(=O)Nc2ccc3oc(C)c(C(=O)OCCOC)c3c2)cc1
  ? | ?
> Cn1c(NCCCO)nc2c1c(=O)n(Cc1cccc(F)c1)c(=O)n2C
  -3.5% | -15.8%
> Cc1cc2c(=O)c(C(=O)c3ccncc3)cn(CC(=O)Nc3cccc(C)c3C)c2cc1C
  -17.3% | -33.2%
> O=C(CCN1CCN2CCCC2C1)N1c2ccccc2Sc2ccc(Cl)cc21 (centres undefined)
  -9.0%[25.2 µM] | .
> COC(=O)c1cc(C)nc2c1c(=O)nc(SCc1cc(C)ccc1C)n2C1CC1
  ? | ?
> Cc1cc(Oc2c(C(F)(F)F)oc3c(CN4CCC(C)CC4)c(O)ccc3c2=O)cc(C)c1Cl
  -33.6% | 3.0%
> CCOC(=O)c1sc2ccccc2c1S(=O)(=O)Nc1cc(OC)ccc1OC
  -16.1% | ?
> CCOc1ccc(NC(=O)N2CCC(N3CCCCC3)CC2)cc1
  6.9% | -3.4%
> CCN1CCN(C(=O)c2c(C)nn(-c3ccc(F)cc3)c2-n2cccc2)CC1
  -15.1% | 20.6%
> COc1ccc(-c2cc(OC(=O)c3ccc(Cl)cc3)c3c(C)oc(C)c3c(=O)c2)cc1
  -28.9% | ?
> O=C(c1ccc2c(c1)N(Cc1ccc(Cl)cc1)C(=O)c1ccccc1S2(=O)=O)N1CCOCC1
  -9.9% | -12.2%
> CCOC(=O)c1c(S(=O)(=O)N2CCC(C(=O)Nc3cccc(C#N)c3)CC2)c(C)n(C)c1C
  -14.0% | 8.8%
> O=C(Cc1ccc(NC(=O)N2CCSc3ncccc32)cc1)NCc1ccccc1
  ? | -10.2%
> COc1ccc(NC(=O)CSc2nc3ccccc3n2CC(=O)N(C)C2CCCCC2)cc1
  -13.9% | -36.2%
> CCOc1ccc(OCC)c(NC(=O)C2CCN(S(=O)(=O)c3cn(C)cn3)CC2)c1
  2.1% | -27.9%
> CCOC(=O)c1ccccc1NC(=O)Cn1c(=O)n(-c2ccc(CC)cc2)c(=O)c2c(C)c(C(=O)N(C)C)sc21
  -14.5% | ?
> CCN1C(=O)c2ccccc2S(=O)(=O)c2ccc(C(=O)NCc3ccccc3)cc21
  -19.0% | -4.2%
> CCc1ccc(NC(=O)N(Cc2c[nH]c3ccccc23)C2CCCCC2)cc1
  46.4%[activator] | ?
> CCc1ccc(C(=O)c2cnc3ccc(F)cc3c2S(=O)(=O)c2ccccc2)cc1
  -27.9% | ?
> Cc1cccc(C)c1NC(=O)Cn1nnc(C(=O)Nc2c(C)cccc2C)c1N
  -8.0% | -16.0%
> Cc1cccc(N2CCN(C(=O)CN3C(=O)COc4ccc(S(=O)(=O)N5CCCCCC5)cc43)CC2)c1C
  -27.9% | ?
> COc1ccc(OC)c(CCNC(=O)Cn2ncc3c([nH]c4ccccc43)c2=O)c1
  1.3% | 5.7%
> O=C(Nc1cccc(-c2nc3ccccc3o2)c1)c1cc([N+](=O)[O-])ccc1N1CCOCC1
  -28.1% | 6.8%

Further compounds
Fields: HTT prom inh | PMP22 txn
> Cc1cccc(C(=O)Nc2ccc(-c3nc4ccccc4s3)cc2Cl)c1
  27.9% | ?
> CC(=O)Nc1cccc(NC(=O)CSc2nccn2Cc2ccc3c(c2)OCO3)c1
  ? | ?
> Cn1c(=O)c(=O)n(C)c2cc(S(=O)(=O)N3CCN(c4ccc(F)cc4)CC3)ccc21
  -0.4% | 0.9%
> CCn1cc(C(=O)N2CCN(c3ccc(F)cc3)CC2)c(=O)c2cc(S(=O)(=O)N3CCOCC3)ccc21
  -0.3% | -16.0%
> CCOc1ccccc1NC(=O)Cn1c(=O)n(CCCC(=O)NCc2ccc(C)cc2)c(=O)c2ccccc21
  -3.4% | ?
> COc1ccc(-c2nc3ccc(C)cn3c2Nc2ccc3c(c2)OCO3)cc1
  15.1% | -28.5%
> Cc1cn2c(=O)cc(COC(=O)COc3ccccc3C)nc2s1
  -5.0% | -13.9%
> CCc1cccc(NC(=O)CN(c2ccc(C)c(C)c2)S(=O)(=O)c2ccsc2C(=O)OC)c1
  -9.7% | ?
> CCN1/C(=C/C=C/c2sc3ccccc3[n+]2CC)Sc2ccccc21
  ? | .
> Cc1ccccc1CSc1nc2cccnc2n1Cc1ccc(C(=O)NC2CC2)cc1
  -5.5% | -25.2%
> CCN(c1ccc(OC)cc1)S(=O)(=O)c1c(C(=O)N2CCCCCC2)c(C)n(C)c1C
  -9.9% | -4.1%
> Cn1nnnc1SCCNCc1ccc(OCc2ccc(Cl)cc2)cc1
  -6.7% | -44.8%
> CCc1nnc2c(N3CCN(c4cccc(C)c4)C(C)C3)nc3ccccc3n12 (centres undefined)
  -27.4% | -26.7%
> Cc1cc2ccccc2n1CCNC(=O)c1cccc(Br)c1
  -19.9% | -24.8%
> COc1ccc(CN(C(=O)c2cc3ccccc3oc2=O)C2CCS(=O)(=O)C2)cc1OC (centres undefined)
  48.5%[activator] | 9.4%
> Oc1cccc(O)c1
  9.3% | .
> CCCCNC(=O)CSc1nc2cc3c(cc2c(=O)n1CCCCCC(=O)NCCc1ccc(OC)c(OC)c1)OCO3
  -8.0% | -0.8%
> Cc1ccccc1CSc1cn(CC(=O)N2CCCC2)c2ccccc12
  18.9% | ?
> CC(C)c1ccc2oc(-c3ccc(NC(=O)c4cc5ccccc5o4)cc3)nc2c1
  -28.2% | ?
> COc1ccc(-c2cn3nc(N4CCCC(C(=O)Nc5cc(C)ccc5C)C4)sc3n2)cc1 (centres undefined)
  -10.4% | ?

Exported with each value named: entries from further up.
CCc1nnc2c(N3CCN(c4cccc(C)c4)C(C)C3)nc3ccccc3n12 (centres undefined)
  HTT prom inh: -27.4%
  PMP22 txn: -26.7%
Cn1c(=O)c(=O)n(C)c2cc(S(=O)(=O)N3CCN(c4ccc(F)cc4)CC3)ccc21
  HTT prom inh: -0.4%
  PMP22 txn: 0.9%
CCCCNC(=O)CSc1nc2cc3c(cc2c(=O)n1CCCCCC(=O)NCCc1ccc(OC)c(OC)c1)OCO3
  HTT prom inh: -8.0%
  PMP22 txn: -0.8%
CCc1cccc(NC(=O)CN(c2ccc(C)c(C)c2)S(=O)(=O)c2ccsc2C(=O)OC)c1
  HTT prom inh: -9.7%
  PMP22 txn: ?

(next part)
Fields: HTT prom inh | PMP22 txn
> O=S(=O)(c1ccc(-c2csc(=Nc3ccc(OC(F)(F)Cl)cc3)n2CCCO)cc1)N1CCCC1
  ? | 15µM*
> COc1ccc(C2=NC(C)(C)N(CC(=O)Nc3cccc(C)c3)C2=O)cc1
  -28.8% | ?
> Cc1ccc(C(=O)NCc2ccccc2)cc1NC(=O)c1nsc2ccccc12
  -0.5% | ?
> CCOC(=O)C1CCN(S(=O)(=O)c2csc(C(N)=O)c2)CC1
  ? | -26.4%
> CCc1cccc(C)c1NC(=O)CC1Oc2ccc(C)cc2NC1=O (centres undefined)
  -6.6% | -25.5%
> CCOc1cc(/C=C(\C#N)C(=O)Nc2ccccc2C)ccc1OCc1cc(=O)n2nc(CC)sc2n1
  28.1% | 1.2%
> CCCCn1c(=O)c2oc3ccccc3c2n(Cc2ccc(OC)cc2)c1=O
  -12.1% | -6.7%
> COc1ccc(C)cc1-n1c(-c2ccc(Cl)cc2)cc2c1CC(C)(C)CC2=O
  4.3% | -9.5%
> O=c1c2cccnc2n(Cc2cccc(F)c2)c(=O)n1Cc1ccc(F)cc1
  -24.6% | -19.3%
> Cc1ccc(NC(=O)C2CCCN(S(=O)(=O)c3ccc4[nH]c(=O)ccc4c3)C2)cc1C (centres undefined)
  -5.2% | -47.8%
> CCN1CCN(CCCNC(=O)c2cnn(-c3ccc(OC)cc3)c2C2CCN(C(=O)OC(C)(C)C)CC2)CC1
  0.3% | 1.1%
> O=S(=O)(c1ccc(Br)cc1)c1nnn2c1nc(NCc1cccs1)c1sccc12
  -6.4% | ?
> Cc1cccc(CNC(=O)c2ccc3c(c2)N(C)CCS3)c1
  -21.5% | -4.4%
> Cc1ccccc1Nc1c(-c2c[nH]c3ccccc23)nc2ccccn12
  20.9% | 2.6%
> CCOc1ccc(NC(=O)CN2CCCN(Cc3cc(C)ccc3C)S2(=O)=O)cc1
  ? | ?
> O=C(CSCc1cnn(-c2ccccc2)c1-n1cccc1)NCc1ccc(Cl)cc1
  ? | 2.6%
> Nc1nc(SCC(=O)Nc2cccc(C(F)(F)F)c2)n[nH]1
  -19.3% | 3.4%
> Cc1oc2ncn(CC(C)C)c(=O)c2c1C(=O)Nc1cccc(C(F)(F)F)c1
  -1.6% | 17.3%
> CCOC(=O)COc1ccc2c(C)c(CCN(CC)CC)c(=O)oc2c1Cl
  11.0% | .
> CCn1c2ccccc2c2nnc(SCCN3CCCCC3)nc21
  -8.3% | ?
